HPGD inh: HPGD (human) dehydrogenase inhibition. P15428. 150,000 compounds, 4.3% hits. Potency, µM, for the others: at the highest dose activity change, negative = inhibition, most hits filed as inhibitors. purified HPGD, NADH fluorescence kinetic, PGE2 substrate. AID 894; active = well fitted inhibition curve with a large enough effect (not every such curve was filed as active); inconclusive = small, poorly fitted or top-dose-only effect, or another doubt; inactive = no such curve, though single readings can be large or run the other way;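 further: top concentration of the series not given in the record; plate controls included wells without enzyme; inactives centre near -10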
Target sequence (P15428 whole entry, looked up): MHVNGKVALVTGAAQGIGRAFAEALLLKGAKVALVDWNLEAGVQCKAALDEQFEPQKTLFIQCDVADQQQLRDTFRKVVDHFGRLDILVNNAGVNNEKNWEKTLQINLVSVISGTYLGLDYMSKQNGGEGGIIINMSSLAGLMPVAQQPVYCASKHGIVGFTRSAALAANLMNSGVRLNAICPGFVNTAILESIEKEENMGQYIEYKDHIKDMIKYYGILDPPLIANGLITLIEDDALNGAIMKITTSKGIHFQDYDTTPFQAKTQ
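NADH formation kinetics: reaction with 30 uM PGE2 and 1 mM NAD+ (final), 20 nM enzyme, Tris-HCl pH 8 with Tween 20, after 15 min compound preincubation at room temperature. Fluorescence change, last versus first of five reads.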
* marks the source's active call; other numbers are inactive results; ? = inconclusive. On the % scale 0 is the no-effect control and ±100 the full control effect; potency means the concentration at half of the fitted maximal effect. This is a subset; the hit share may differ from the screen's.

SMILES | HPGD inh
CCOC(=O)c1[nH]c2ccccc2c1NC(=O)CCN1CC(C)OC(C)C1 (stereo not given) | -15%
O=C(c1ccco1)N1CCN(S(=O)(=O)Cc2ccc(Cl)cc2)CC1 | -8%
COc1cc2c(cc1OC)CN(C(=S)Nc1ccc(C)cc1C)CC2 | -18%
COc1cc2c(cc1NC(=O)CSc1nc3ccccc3[nH]1)oc1ccccc12 | -7%
N#CCCn1nnc2ccccc21 | -5%
Cc1ccc(OCC(=O)NNC(=O)c2cc(C)[nH]n2)cc1 | -4%
O=C(N/C(=C/c1cccc(Br)c1)c1nc(=S)[nH][nH]1)c1ccccc1 | -19%
CC(C)CC(=O)NC(=S)Nc1cccc(NC(=O)c2ccccc2)c1 | -19%
Cc1nonc1NC(=O)c1ccccc1Br | -17%
C#CCONC(=O)c1cc(OCC(F)(F)F)ccc1OCC(F)(F)F | -7%
Cc1ccc(OCC(=O)Nc2sc3c(c2C#N)CCC3)cc1C | -12%
O=C1OC(/C=C/c2ccccc2)=NC/1=C/c1ccco1 | -7%
COc1cc2cc(CN(Cc3cccnc3)C(=O)NCc3ccccc3)c(=O)[nH]c2cc1OC | ?
COc1ccccc1C(=O)Nc1ccc(C2=NNC(=O)CC2C)cc1 (stereo not given) | -15%
CC1=NN(C(=O)c2ccc(Cn3cc([N+](=O)[O-])cn3)cc2)C(O)(C(F)(F)F)C1 (stereo not given) | -10%
Cn1c(Cl)cnc1C1CC(=O)c2cc(Cl)ccc2O1 (stereo not given) | ?
COc1ccc(/C=C/C(=O)OCC(=O)NCc2ccco2)cc1OC | ?
CC1Cc2ccccc2N1C(=O)CSc1nnc2c(n1)[nH]c1ccccc12 (stereo not given) | -14%
CCN(CCNC(=O)Cn1c(=O)sc2ccccc21)c1ccccc1 | -8%
Cc1ccccc1C(=O)O/N=C(\c1ccccc1)c1ccccn1 | -5%
Cc1cccc(CSCCNC(=O)c2ccc(CN3CCOCC3)cc2)c1 | -8%
COc1ccc(NC(=O)c2c(C)oc3c2CCCC3)cc1 | -6%
Cc1cccc(N(CC(=O)NC2CCCC2)C(=O)CS(=O)CC(=O)Nc2ccc3c(c2)OCO3)c1C (stereo not given) | -7%
COc1ccccc1NS(=O)(=O)c1cc(N/C(=N\S(=O)(=O)c2ccccc2)c2ccc(F)cc2)ccc1Cl | ?
Cc1cc2c(C)cc(=O)oc2c2c1NCCC2 | ?
Nc1ncnc2c1nc(Br)n2C1CC(O)C(CO)O1 (stereo not given) | -9%
O=C(COC(=O)CSc1cccc2cccc(Cl)c12)Nc1ncc(C(F)(F)F)cc1Cl | ?
CCN(CC)c1cc(C)c2ccccc2n1 | -9%
Brc1cc(Br)c2ncnc(N3CCCCC3)c2c1 | -5%
Cc1cc(OCc2nnc(SCC(=O)OC3CCCCC3)o2)ccc1Cl | -8%
O=C(NC1C2CC3CC(C2)CC1C3)C1CC1 (stereo not given) | -3%
COc1ccc(CCNC(=O)C(=O)NCC2CCCO2)cc1OC (stereo not given) | -2%
COc1ccccc1NC(=O)C1=C(C)NC(=O)NC1c1cc(C)cs1 (stereo not given) | 0%
Cc1ccc(C)c(NC(=O)CSc2nc(N)c(NC(=O)c3cccs3)c(=O)[nH]2)c1 | -19%
CCOc1ccc(NC(=O)C(C)O)c(NS(=O)(=O)c2ccc(CCNC(C)=O)cc2)c1 (stereo not given) | -2%
COc1ccc(Cc2nnc(NC(=O)c3cccc([N+](=O)[O-])c3C)s2)cc1 | -20%
Cc1ccc(Oc2nnc(-c3cccs3)c3ccccc23)cc1 | -10%
Brc1ccc([C@H]2CN3CCSC3=N2)cc1 | -20%
O=c1cc(CN2CCN(c3ccccc3)CC2)c2c(ccc3ccccc32)o1 | -20%
Cc1ccc(N2C(=O)C(Cl)=C(Nc3c(C)n(C)n(-c4ccccc4)c3=O)C2=O)cc1 | -15%

Some values from above.
`COc1ccccc1C(=O)Nc1ccc(C2=NNC(=O)CC2C)cc1` (stereo not given) in HPGD inh = -15%
`COc1ccccc1NC(=O)C1=C(C)NC(=O)NC1c1cc(C)cs1` (stereo not given) in HPGD inh = 0%

Going on with the list.
SMILES | HPGD inh
O=C(COC(=O)CC1CC2CCC1C2)NC(=O)NCc1ccco1 (stereo not given) | -23%
CC(=O)/C(=N/Nc1ccccc1)N1CCOCC1 | -20%
Cc1ccc(C(=O)NC2(C(F)(F)F)N=C3SCCN3C2=O)cc1 (stereo not given) | -5%
CCn1cc(C(=O)Nc2ccc(C(=O)N3CCCC3)cc2)c(=O)c2ccc(C)nc21 | 4µM*
CC(=O)NC1C(=O)N=C(SCc2ccccc2)NC1=O (stereo not given) | 4%
COc1ccccc1-c1nc(C(F)(F)F)c(OC)o1 | -15%
O=C(Nc1nccs1)c1ccc(NC(=O)c2ccco2)cc1 | -18%
C=CCOc1ccc2c(OC)c3ccoc3nc2c1OC | ?
O=C(Cc1ccc(Br)cc1)OCC(=O)N1CCc2ccccc2C1 | -6%
CC(C)Cn1c(Cc2ccccc2)n[nH]c1=S | -24%
CCOC(=O)C1CCCN(C(=O)Cc2ccc(C)cc2)C1 (stereo not given) | -6%
O=C(NCc1nc2ccccc2[nH]1)c1cc2ccccc2oc1=O | -20%
C=CCn1c(SCCOc2ccc(OC)cc2)nnc1C(C)NC(=O)Cc1ccc(OC)cc1 (stereo not given) | -7%
Cc1ccc(CN2C3=NC(=O)CN3c3ccccc32)cc1 | -6%
Cc1cc(C)cc(N(CC(=O)O)S(=O)(=O)c2c(C)noc2C)c1 | 5%
CCOC(=O)c1c(NC(=S)Nc2ccc(OC)cc2)sc2c1CCC2 | -21%
O=C(Nc1ccc2c(c1)OCO2)C(c1ccccc1)N1CCC2(CC1)OCCO2 (stereo not given) | -1%
Cc1ccc(C2CC(=O)Oc3c(C(C)C)ccc(C)c32)cc1 (stereo not given) | -1%
CC(=O)Nc1ccc(S(=O)(=O)n2cnc(C)c2)cc1 | -14%
COC(=O)c1ccc(C)c(NC(=O)CN2C(=O)c3ccccc3S2(=O)=O)c1 | 0%
Cc1cccc(N2CC(c3nc4ccccc4n3C)CC2=O)c1C (stereo not given) | -3%
Cc1cccc(N(C(=O)c2ccc(CN3CCOCC3)o2)C(C(=O)NC(C)(C)C)c2ccc(F)cc2)c1 (stereo not given) | -15%
CCOC(=O)CSc1nc2c(c(=O)n(Cc3ccccc3Cl)c(=O)n2C)n1C | -8%
Cn1cccc1C1Nc2ccccc2NC2=C1C(=O)CC(C)(C)C2 (stereo not given) | -9%
COCC(=O)n1nc(-c2ccccc2)nc1NCc1ccc(F)cc1 | ?
Nc1cc(OCC(F)(F)F)cc([N+](=O)[O-])c1 | 5%
Cc1ccc2nc(C3CCN(C(=O)NCc4ccccc4)CC3)[nH]c2c1 | -7%
Cn1cc(C(=O)C(F)(F)F)c2ccccc21 | -19%
Cc1c(SCCO)c(=O)[nH]c2cc3c(cc12)OCO3 | ?
CCCCCC(N)=O | -14%
CC(=O)/C(=N/Nc1cccc(Cl)c1)Sc1nnc(C(O)c2ccccc2)n1-c1ccccc1 (stereo not given) | -13%
O=C(O)c1cccc(Nc2nc(-c3cccnc3)nc3ccccc23)c1 | -23%
CCOc1cc(-c2nn3cnnc3s2)cc(OCC)c1OCC | -6%
CCOC(=O)c1c(NC(=O)CSc2nnc(-c3ccco3)o2)sc(C(C)=O)c1C | 16µM*
COc1cc(/C=C2\SC(=S)N(CC(=O)Nc3ccccn3)C2=O)cc(OC)c1OC | -13%
CC(C)(C)OC(=O)NCCCCC1=CC2=CC(=O)C(C)(OC(=O)c3cnc4ccccc4n3)C(=O)C2=CO1 (stereo not given) | -20%
Cc1ccc(-c2cc(-c3ccccc3Cl)c(C#N)c(N)n2)o1 | ?
O=C1C(=C2CCCCC2)SC(=S)N1Cc1ccco1 | ?
Cc1ccc(-c2nc(CS(=O)CC(=O)NCCCN3CC(C)CC(C)C3)c(C)o2)cc1 (stereo not given) | -4%
CCN(CC)CCOc1cc2c(nn1)Oc1ccccc1N2C | ?
CCOc1cc(-c2nnc(-c3ccco3)o2)cc(OCC)c1OCC | ?
COc1ccc(CCNC(=O)COC(=O)/C=C/c2ccc(OCC#N)c(OC)c2)cc1OC | -17%
COc1ccc(/C=N/N2C(=O)CSC2=S)cc1 | -14%
Cc1ccc(C2CC(=O)C=C(NCC(C)C)C2)cc1 (stereo not given) | -3%
CC(=O)CC(=O)Nc1ccc(Nc2ccccc2)cc1 | -9%
CNC(=S)NNC(=O)c1cccc(C(F)(F)F)c1 | -14%
O=C1C2C3C=CC(C3)C2C(=O)N1CCC(=O)N1CCc2ccccc21 (stereo not given) | -7%
CCOC(=O)Cc1csc(NS(=O)(=O)Cc2ccccc2)n1 | -8%
CC(=O)c1oc2ccccc2c1NC(=O)CCCN1C(=O)c2ccccc2C1=O | -15%
CN1C(=O)CCC1(O)c1ccccc1 (stereo not given) | -2%
CC(C)c1cc(NC(=O)C(C)(C)C)cc(C(C)C)c1O | -4%
CCOC(=O)c1cn(CC(=O)Nc2ccc(CC)cc2)nn1 | -12%
CC(C)(C)OC(=O)N1CCC(C(=O)N2CCOCC2)CC1 | -4%
COc1cccc(CNC(=O)C(CCSC)NS(=O)(=O)c2ccc3c(c2)oc(=O)n3C)c1 (stereo not given) | -2%
O=C(NC12CC3CC(CC(C3)C1)C2)N1CCN(c2nc(-c3ccccc3)cs2)CC1 | -6%
Cc1nn(C)cc1/C=N/NC(=O)C1(O)c2ccccc2-c2ccccc21 | -3%
CC(C)(C)c1cc(C(C)(C)C)n(-c2ccccc2)n1 | -7%
CCOC(=O)C1=C(C)C(c2ccc(OC)cc2OC)NC(=O)N1 (stereo not given) | -11%
O=C(CSc1ccc(C(F)(F)F)cc1[N+](=O)[O-])Nc1ccc2ccccc2c1 | -7%
COc1cc(/C=N/NC(N)=S)ccc1OC(=O)c1ccc(C)cc1 | -17%

Random excerpt: 2 compounds from above
SMILES | HPGD inh
COc1ccc(CCNC(=O)COC(=O)/C=C/c2ccc(OCC#N)c(OC)c2)cc1OC | -17%
CNC(=S)NNC(=O)c1cccc(C(F)(F)F)c1 | -14%

(listing goes on)
SMILES | HPGD inh
COc1ccccc1[C@H]1C(c2ccccc2)=NN(c2ccccc2)[C@@H]1CO | ?
COc1ccc(CNC(=O)CSc2nnc(C)n2-c2ccc(F)cc2)cc1 | -3%
O=C(Nc1sc2c(c1C(=O)O)CCCCC2)c1ccco1 | 18µM*
O=C(NCc1cccc(F)c1)C1CCN(S(=O)(=O)Cc2ccccc2)CC1 | -3%
CC12CCC(C(=O)N3CCCCC3)(CC1=O)C2(C)C (stereo not given) | -13%
COc1ccc(-c2nc(C)ncc2N=Nc2ccccc2)cc1 | -20%
Cc1c(Br)cc(C(=O)N2CCCC2)c(C)c1C | -12%
CN[C@@H](CC(C)C)C(=O)N[C@@H]1C(=O)N[C@H](CC(N)=O)C(=O)N[C@@H]2C(=O)N[C@H]3C(=O)N[C@H](C(=O)N[C@H](C(=O)O)c4cc(O)cc(O)c4-c4cc3ccc4O)[C@H](O)c3ccc(c(Cl)c3)Oc3cc2cc(c3O[C@H]2O[C@@H](CO)[C@@H](O)[C@@H](O)[C@@H]2O[C@@H]2C[C@](C)(N)[C@H](O)[C@H](C)O2)Oc2ccc(cc2Cl)[C@@H]1O | -7%
CNC(=S)NNC(=O)COc1ccc(C)c(C)c1 | -15%
Cc1ccccc1-n1c(SCc2cccc(F)c2)nc2[nH]ncc2c1=O | -5%
Cc1csc(NC(=O)/C=C/c2ccc(C)o2)n1 | ?
Cc1cc(C)cc(NC(=S)NCc2cccn2C)c1 | -27%
CS(=O)(=O)c1cccc(C(=O)Oc2ccccc2)c1 | -8%
CC(=O)NS(=O)(=O)c1ccc(NC(=O)c2ccc3c(c2)C(=O)N(CCC(C)C)C3=O)cc1 | 28µM*
O=C(Oc1ccc(-c2nnco2)cc1)N(c1ccccc1)c1ccccc1 | -15%
CC1CN(CC(=O)N2CCc3[nH]c4ccccc4c3C2)CC(C)O1 (stereo not given) | -9%
Cc1cccc(NCCNc2cccc(C)c2)c1 | -5%
Cc1nc(-c2ccccc2)cc(=O)[nH]1 | -9%
Cc1ccc(-c2cc(NC(=O)CCl)n(-c3ccccc3)n2)cc1 | -10%
CC(=O)N1c2ccccc2Oc2cc3ccccc3cc21 | -11%

Continued, overlapping the part above by 4 compounds.
SMILES | HPGD inh
Cc1cccc(NCCNc2cccc(C)c2)c1 | -5%
Cc1nc(-c2ccccc2)cc(=O)[nH]1 | -9%
Cc1ccc(-c2cc(NC(=O)CCl)n(-c3ccccc3)n2)cc1 | -10%
CC(=O)N1c2ccccc2Oc2cc3ccccc3cc21 | -11%
COC(=O)C(C(=O)OC)C(Cc1cc(F)cc(F)c1F)NC=O (stereo not given) | -6%
C/C(=C(\C#N)C(=O)NCCCN1CCOCC1)N(C)C | -7%
CCN1CCN(c2nc(Nc3cccc(C)c3)nc(N)c2[N+](=O)[O-])CC1 | -11%
COCCSc1nnc(NC(=O)C(C)(C)C)s1 | -16%
Cc1ccc(-c2nnn(CC(=O)N(CC(=O)NC3CCCC3)c3cnc4ccccc4c3)n2)o1 | -3%
COc1ccc(CCN=CC2=C(O)CC(C)(C)CC2=O)cc1 | -9%
Cn1c(=O)c2c(nc(CN3CCOCC3)n2CCc2ccccc2)n(C)c1=O | -5%
COc1ccc(CNc2ccc(-c3ccccc3OC)nn2)cc1 | 16µM*
CCOc1cc(/C=C/c2nc3ccccc3s2)ccc1OCC(=O)N1CCOCC1 | ?
CCCC(=O)OC(=O)CCC | -10%

Screens from PubChem.
